From PubChem
nsP2pro primary – inhibitors of chikungunya virus nsP2 protease | actives 1.1% (n = 31,000) | FRET peptide cleavage, nsP2pro, fluorescence 1 h | Potency, µM (doses to about 24.9 µM), without a hit: at the highest dose activity change, negative = inhibition, actives largely listed as inhibitors | AID 1964107; active means well fitted inhibition curve with a large enough effect; inconclusive means small, poorly fitted or top-dose-only effect; inactive means no such curve, though single readings can be large or run the other way; further: nearly all actives have a fitted effect of over 60% in size; a reference inhibitor and vehicle were the controls
* marks the source's active call; other numbers are inactive results; u = inconclusive; & = joins results of further samples; [ ] = another dose, or the depositor's remark. On the % scale 0 is the no-effect control and ±100 the full control effect; potency means the concentration at half of the fitted maximal effect.

SMILES: Cc1cnc(-c2cc(N3CCN(C(=O)CCS(C)(=O)=O)CC3)ncc2Cl)c(C)c1
- nsP2pro primary: -18%

SMILES: Cc1cc(NC(=O)NCCN2CCC(O)(Cc3ccccc3)CC2)c2ccccc2n1
- nsP2pro primary: 4%

SMILES: CCc1cc(Nc2nccc(-c3c(-c4ccc(OC)c(C(=O)Nc5c(F)cccc5F)c4)nc4ccccn34)n2)c(OC)cc1N1CCC(N2CCN(S(C)(=O)=O)CC2)CC1
- nsP2pro primary: 34%[activator]

SMILES: COCCn1c(SCC(=O)Nc2ccc(F)c(Cl)c2)nc2c(oc3ccccc32)c1=O
- nsP2pro primary: -18%

SMILES: Cc1c(C(=O)O)c(O)cc2c1C(=O)c1c(O)c([C@@H]3O[C@H](CO)[C@@H](O)[C@H](O)[C@H]3O)c(O)c(O)c1C2=O
- nsP2pro primary: 3%

SMILES: CC(=O)NCc1cccc(OC[C@@H](O)CNCCc2ccc(NS(=O)(=O)c3ccccc3)cc2)c1
- nsP2pro primary: 9%

SMILES: CN(C)C(=O)c1ccc(S(=O)(=O)c2ccc(NC(=O)[C@@](C)(O)C(F)(F)F)c(Cl)c2)cc1
- nsP2pro primary: u

SMILES: COc1ccc(C2CNC(=O)C2)cc1OC1CCCC1 (stereo unspecified)
- nsP2pro primary: -22%&2%&-2%

SMILES: Cc1cncc2cccc(S(=O)(=O)N3CCCN(C(=O)CN)C[C@@H]3C)c12
- nsP2pro primary: 12%

SMILES: CNC(=O)c1ccc(Nc2ncc(C(F)(F)F)c(NCc3nccnc3N(C)S(C)(=O)=O)n2)cc1
- nsP2pro primary: -1%

Pulled one by one from the entries so far (two):
SMILES: CC(=O)NCc1cccc(OC[C@@H](O)CNCCc2ccc(NS(=O)(=O)c3ccccc3)cc2)c1
- nsP2pro primary: 9%

SMILES: Cc1cc(NC(=O)NCCN2CCC(O)(Cc3ccccc3)CC2)c2ccccc2n1
- nsP2pro primary: 4%

The results go on:
Compound | nsP2pro primary
Nc1nccn2c(C3CCC(C(=O)O)CC3)nc(-c3cc4cccc(Cl)c4[nH]3)c12 (stereo unspecified) | 324%[activator]
NC(=O)C1(N2CCCCC2)CCN(CCCC(=O)c2ccc(F)cc2)CC1 | 0%
CCOc1nc2c(N)ncnc2n1CC | -11%
C[C@]1(c2nc3c(C(N)=O)cccc3[nH]2)CCCN1 | u
C[C@@H]1CCCN1CCc1cc2cc(-c3ccc(C#N)cc3)ccc2o1 | 14%
Nc1ccc(-c2cccc3c(=O)cc(N4CCOCC4)oc23)cc1 | -14%
O=C(Nc1cnc(Cl)nc1)c1ccc(F)c(F)c1 | -13%
CCOC(=O)C1=Cc2ccc(C(F)(F)C(F)(F)F)cc2N=C(N)C1 | 34%[activator]

Ordered by formula weight (smallest number first): part of the list above
Compound | nsP2pro primary
O=C(Nc1cnc(Cl)nc1)c1ccc(F)c(F)c1 | -13%
NC(=O)C1(N2CCCCC2)CCN(CCCC(=O)c2ccc(F)cc2)CC1 | 0%
CCc1cc(Nc2nccc(-c3c(-c4ccc(OC)c(C(=O)Nc5c(F)cccc5F)c4)nc4ccccn34)n2)c(OC)cc1N1CCC(N2CCN(S(C)(=O)=O)CC2)CC1 | 34%[activator]

Filtered by structure: the entries above containing a CF3 group.
Compound | nsP2pro primary
CN(C)C(=O)c1ccc(S(=O)(=O)c2ccc(NC(=O)[C@@](C)(O)C(F)(F)F)c(Cl)c2)cc1 | u
CNC(=O)c1ccc(Nc2ncc(C(F)(F)F)c(NCc3nccnc3N(C)S(C)(=O)=O)n2)cc1 | -1%
CCOC(=O)C1=Cc2ccc(C(F)(F)C(F)(F)F)cc2N=C(N)C1 | 34%[activator]

Some of the compounds tested (hit frequency here may not be typical).
